UUG fidelity – yeast start codon fidelity modulation | S. cerevisiae UUG-firefly luciferase reporter, luminescence/redox ratio | activity score, % at 18.7 µM | actives 0.13% (n = 350,000);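 active = replicate mean at a twofold rise or more, about +100% in these data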;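 note: firefly luciferase made from a UUG start codon reports start codon fidelity; reporter light over untreated wells divided by growth signal over untreated wells; some hits fall short of that in this replicate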
Env fusion inh – blocks HIV Env-driven cell-cell fusion; HeLa-JRFL Env/CEM21 cell fusion, luciferase; inhibition, % at 12.3 µM; actives 1.1% (n = 360,000); AID 651610;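 active = mean replicate inhibition score of at least 50 and every replicate individually at or above 50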;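 note: 0% = plate neutral controls and 100% = maraviroc near 300 nM; one replicate is shown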
* marks the source's active call; other numbers are inactive results; [ ] = dose if it differs, or a comment. Some of the compounds tested; the hit share may differ from the screen's.

Molecule | Env fusion inh | UUG fidelity
CCCNC(=O)N(C)C[C@H]1Oc2cc(Br)ccc2S(=O)(=O)N([C@H](C)CO)C[C@@H]1C | 2[16.7 µM] | 21
CNC[C@@H]1OCCCC[C@@H](C)Oc2ccc(NC(=O)Nc3ccccc3)cc2C(=O)N([C@H](C)CO)C[C@H]1C | 0[16.7 µM] | 10
Cc1ccccc1-c1cnc2c(c1)C(=O)N([C@H](C)CO)C[C@@H](C)[C@H](CN(C)Cc1ccncc1)O2 | 1[16.7 µM] | -10
CCCNC(=O)N1[C@H](CO)[C@@H](c2ccc(-c3cccc(OC)c3)cc2)[C@@H]1C#N | 26[16.7 µM] | -2
CCCC#Cc1ccc2c(c1)O[C@H](CN(C)C)[C@H](C)CN([C@@H](C)CO)S2(=O)=O | -35[16.7 µM] | -5
C[C@@H]1CN([C@@H](C)CO)C(=O)c2cc(NC(=O)Nc3ccc4c(c3)OCO4)ccc2O[C@@H](C)CCCCO[C@@H]1CN(C)C(=O)CCCN(C)C | 15[16.7 µM] | -2
C[C@H]1CN([C@@H](C)CO)C(=O)c2cc(C3=CCCCC3)cnc2O[C@H]1CN(C)C(=O)Nc1cccc(F)c1 | 21[16.7 µM] | 12
O=C(CCN1CCCCC1)NCC[C@@H]1CC[C@H](NS(=O)(=O)c2cccc(F)c2)[C@@H](CO)O1 | -7[16.7 µM] | 14
COCC(=O)N1[C@H](C#N)[C@@H](c2ccccc2)[C@@H]1CO | -5[16.7 µM] | 3
COCc1cn(CC[C@@H]2CC[C@H](NC(=O)CCN3CCCCC3)[C@H](CO)O2)nn1 | -13[16.7 µM] | -14
CS(=O)(=O)N1[C@H](C#N)[C@@H](c2ccccc2)[C@H]1CO | 1[16.7 µM] | -8
CCCC#Cc1ccc2c(c1)O[C@@H](CN(C)Cc1ccncc1)[C@@H](C)CN([C@H](C)CO)S2(=O)=O | 21[16.7 µM] | -4
C[C@H]1CN([C@@H](C)CO)C(=O)c2cc(NS(=O)(=O)c3ccc(Cl)cc3)ccc2O[C@@H]1CN(C)S(=O)(=O)c1ccccc1 | 8[16.7 µM] | 4
C[C@H](CO)N1C[C@H](C)[C@H](CN(C)S(=O)(=O)c2cccs2)Oc2c(NC(=O)C3CCCCC3)cccc2C1=O | -12[16.7 µM] | -1
C[C@@H]1CCCCO[C@H](CN(C)C(=O)c2ccccc2)[C@H](C)CN([C@@H](C)CO)C(=O)c2cc(NC(=O)Nc3ccc(F)cc3)ccc2O1 | -16[16.7 µM] | 0
Cc1noc(C)c1NC(=O)Nc1ccc2c(c1)C(=O)N([C@@H](C)CO)C[C@@H](C)[C@@H](CN(C)Cc1ccc(C(F)(F)F)cc1)OCCCC[C@@H](C)O2 | -70[16.7 µM] | 6
O=C(C[C@H]1CC[C@H](NC(=O)NC2CCCCC2)[C@H](CO)O1)NCc1ccc(F)cc1 | -4[16.7 µM] | 19
COc1cccc(NC(=O)N[C@H]2CC[C@@H](CC(=O)Nc3ccccc3)O[C@H]2CO)c1 | 19[16.7 µM] | -13
COc1ccc(NC(=O)Nc2cccc3c2O[C@H](CN(C)C(=O)Nc2cccc4ccccc24)[C@@H](C)CN([C@@H](C)CO)C3=O)cc1 | -10[16.7 µM] | -6
C[C@H](CO)N1C[C@H](C)[C@@H](CN(C)C(=O)Nc2ccc(F)cc2)OCCCC[C@H](C)Oc2ccc(NC(=O)CCCN(C)C)cc2C1=O | 6[16.7 µM] | 0
CNC[C@@H]1OCCCC[C@H](C)Oc2ccc(NS(=O)(=O)c3ccc(Cl)cc3)cc2C(=O)N([C@@H](C)CO)C[C@@H]1C | 13[16.7 µM] | 19
COCC#Cc1cnc2c(c1)C(=O)N([C@H](C)CO)C[C@@H](C)[C@H](CN(C)C(=O)c1cccc(F)c1)O2 | 6[16.7 µM] | 3
C[C@@H]1CN([C@@H](C)CO)C(=O)Cc2cc(NS(=O)(=O)c3cn(C)cn3)ccc2O[C@@H]1CN(C)CC1CC1 | -8[16.7 µM] | 33
CCNC(=O)C[C@@H]1CC[C@H]2[C@H](COc3ccc(NC(=O)Cc4cccs4)cc3C(=O)N2C)O1 | 17[16.7 µM] | -22
CNC[C@H]1OCCCC[C@H](C)Oc2ccc(NC(=O)Nc3ccc(F)cc3)cc2C(=O)N([C@H](C)CO)C[C@H]1C | -12[16.7 µM] | 23
C[C@@H]1CCCCO[C@@H](CN(C)Cc2ccc(C(=O)O)cc2)[C@H](C)CN([C@H](C)CO)C(=O)c2cc(NC(=O)CCCN(C)C)ccc2O1 | -25[16.7 µM] | 22
CNC[C@@H]1Oc2ccc(NC(=O)c3ccncc3)cc2CC(=O)N([C@@H](C)CO)C[C@H]1C | 7[16.7 µM] | -20
C[C@@H]1CCCCO[C@H](CN(C)S(=O)(=O)c2cccs2)[C@@H](C)CN([C@@H](C)CO)C(=O)c2cc(NS(=O)(=O)c3ccc(Cl)cc3)ccc2O1 | -1[16.7 µM] | -5
C[C@@H]1CCCCO[C@@H](CN(C)S(=O)(=O)c2cn(C)cn2)[C@@H](C)CN([C@@H](C)CO)C(=O)c2cc(NS(=O)(=O)c3cn(C)cn3)ccc2O1 | -1[16.7 µM] | -3
Cc1ccc(S(=O)(=O)Nc2ccc3c(c2)C(=O)N([C@H](C)CO)C[C@@H](C)[C@@H](CN(C)S(=O)(=O)c2c(C)noc2C)O3)cc1 | 0[16.7 µM] | 9
CC(C)NC(=O)Nc1ccc2c(c1)CC(=O)N([C@@H](C)CO)C[C@@H](C)[C@@H](CN(C)C(=O)Nc1ccc3c(c1)OCO3)O2 | -14[16.7 µM] | 0
COc1ccc([Si](C)(C)[C@@H]2[C@@H](CCO)O[C@]3(C(=O)N(Cc4ccc(N5CCCCC5=O)cc4)c4ccccc43)[C@H]2C)cc1 | -3[16.7 µM] | 5
O=C(C[C@H]1CC[C@H]2[C@@H](COC[C@H](O)CN2C(=O)C2CCOCC2)O1)NCc1ccncc1 | -2[16.7 µM] | -7
C[C@@H]1CN([C@@H](C)CO)C(=O)c2cc(NS(C)(=O)=O)ccc2O[C@@H](C)CCCCO[C@@H]1CN(C)S(=O)(=O)c1ccccc1 | -3[16.7 µM] | -6
CC(C)C#Cc1ccc2c(c1)O[C@H](CN(C)C(=O)C1CCCCC1)[C@@H](C)CN([C@@H](C)CO)S2(=O)=O | 22[16.7 µM] | 5
C[C@H](CO)N1C[C@H](C)[C@H](CN(C)Cc2ccc(C(=O)O)cc2)OCCCC[C@H](C)Oc2ccc(NS(=O)(=O)c3ccc(F)cc3)cc2C1=O | -3[16.7 µM] | 27
CNC(=O)C[C@H]1CC[C@@H]2[C@H](COc3ccc(NC(=O)Nc4ccc(Cl)cc4)cc3C(=O)N2C)O1 | -4[16.7 µM] | 10
CNC[C@@H]1Oc2c(NC(=O)c3ccncc3)cccc2C(=O)N([C@@H](C)CO)C[C@H]1C | 6[16.7 µM] | 4
O=C(C[C@@H]1C=C[C@@H](NC(=O)Nc2cccc(F)c2)[C@@H](CO)O1)NCC1CC1 | -2[16.7 µM] | -13
C[C@H](CO)N1C[C@H](C)[C@@H](CN(C)S(=O)(=O)c2ccc(F)cc2)OCCCC[C@H](C)Oc2ccc(NC(=O)Nc3ccc(C(F)(F)F)cc3)cc2C1=O | 57*[16.7 µM] | -16
Cc1ccc(S(=O)(=O)N[C@H]2C=C[C@H](CC(=O)N3CCC(Cc4ccccc4)CC3)O[C@H]2CO)cc1 | 76*[16.7 µM] | 25
Cc1ccc(S(=O)(=O)Nc2ccc3c(c2)CC(=O)N([C@H](C)CO)C[C@@H](C)[C@@H](CN(C)Cc2ccc(Cl)c(Cl)c2)O3)cc1 | 17[16.7 µM] | -5
C[C@H]1CN([C@@H](C)CO)C(=O)Cc2cc(NS(C)(=O)=O)ccc2O[C@H]1CN(C)Cc1ccccc1 | 5[16.7 µM] | 15
CCC(=O)N(C)C[C@@H]1Oc2cc(-c3cccc(C#N)c3)ccc2S(=O)(=O)N([C@H](C)CO)C[C@H]1C | 26[16.7 µM] | -8
CCCNC(=O)Nc1ccc2c(c1)OC[C@@H](C)N(CCC)C[C@@H](C)[C@@H](OC)CN(C)C2=O | -11[16.7 µM] | -6
COc1cccc(C(=O)Nc2ccc3c(c2)OC[C@H](C)NC[C@@H](C)[C@@H](OC)CN(C)C3=O)c1 | -3[16.7 µM] | -1
CN1C(=O)c2cc(NC(=O)C3CCCC3)ccc2OC[C@H]2O[C@@H](CC(=O)Nc3ccccc3)CC[C@H]21 | 0[16.7 µM] | 18
CCCNC(=O)N(C)C[C@H]1Oc2cc(C#C[C@H](C)O)ccc2S(=O)(=O)N([C@@H](C)CO)C[C@@H]1C | -6[16.7 µM] | 0
Cc1cc(C(=O)Nc2ccc3c(c2)C(=O)N(C)[C@H]2CC[C@@H](CC(=O)O)O[C@@H]2CO3)no1 | -8[16.7 µM] | 8
N#C[C@H]1N[C@@H](CO)[C@@H]1c1ccc(-c2ccccc2F)cc1 | 37[16.7 µM] | -6

(next part)
Molecule | Env fusion inh | UUG fidelity
C[C@@H]1CN([C@@H](C)CO)S(=O)(=O)c2ccc(C#CC3CC3)cc2O[C@@H]1CN(C)Cc1ccccc1 | -14[16.7 µM] | 6
C[C@@H]1CCCCO[C@H](CN(C)C(=O)CCCN(C)C)[C@H](C)CN([C@@H](C)CO)C(=O)c2cc(NC(=O)Cc3ccccc3)ccc2O1 | -2[16.7 µM] | 13
O=C(C[C@H]1C=C[C@@H](NC(=O)CN2CCOCC2)[C@@H](CO)O1)NC1CCCCC1 | -5[16.7 µM] | 6
CCCC#Cc1cnc2c(c1)C(=O)N([C@H](C)CO)C[C@H](C)[C@H](CN(C)Cc1ccc(F)cc1)O2 | -14[16.7 µM] | -8
O=C(C[C@@H]1C=C[C@@H](NS(=O)(=O)c2ccccc2)[C@@H](CO)O1)NCCN1CCCCC1 | -9[16.7 µM] | -13
C[C@H]1CN([C@@H](C)CO)C(=O)c2cc(NS(=O)(=O)c3ccc(F)cc3)ccc2O[C@@H]1CN(C)C(=O)Nc1ccccc1 | -15[16.7 µM] | 0
C[C@H](CO)N1C[C@H](C)[C@H](CN(C)Cc2ccncc2)Oc2cc(-c3cccnc3)ccc2S1(=O)=O | -2[16.7 µM] | -17
O=C(C[C@H]1C[C@H]2c3cc(NC(=O)C4CCOCC4)ccc3O[C@H]2[C@@H](CO)O1)NC1CCCC1 | 2[16.7 µM] | -2
C[C@@H]1CN([C@H](C)CO)C(=O)c2cc(C#CC3CC3)cnc2O[C@@H]1CN(C)C(=O)c1ccc(F)cc1 | -19[16.7 µM] | 6
O=C(NCC[C@H]1CC[C@@H](NC(=O)Nc2cc(F)ccc2F)[C@H](CO)O1)Nc1ccc(F)cc1 | -6[16.7 µM] | -6
C[C@@H]1CCCCO[C@H](CN(C)Cc2ccncc2)[C@H](C)CN([C@@H](C)CO)C(=O)c2cc(NS(C)(=O)=O)ccc2O1 | -7[16.7 µM] | -4
C[C@H](CO)N1C[C@H](C)[C@@H](CN(C)Cc2ccncc2)Oc2ncc(C#CCN(C)C)cc2C1=O | -8[16.7 µM] | -14
C[C@H]1CN([C@@H](C)CO)C(=O)Cc2cc(NC(=O)Nc3ccc4c(c3)OCO4)ccc2O[C@H]1CN(C)CC1CCCCC1 | -2[16.7 µM] | 12
C[C@H](CO)N1C[C@H](C)[C@H](CN(C)C(=O)C2CCC2)Oc2ncc(C#CC3(O)CCCC3)cc2C1=O | -6[16.7 µM] | 1
C[C@@H]1CN([C@@H](C)CO)C(=O)Cc2cc(NS(C)(=O)=O)ccc2O[C@@H]1CN(C)S(=O)(=O)c1cccs1 | 1[16.7 µM] | 5
CCC(=O)N(C)C[C@H]1Oc2ncc(-c3ccc(C#N)cc3)cc2C(=O)N([C@H](C)CO)C[C@H]1C | -15[16.7 µM] | 7
COc1ccc(-c2ccc3c(c2)O[C@H](CN(C)C(=O)Nc2ccccc2F)[C@@H](C)CN([C@@H](C)CO)S3(=O)=O)cc1 | -12[16.7 µM] | -5
CC(C)CC#Cc1cnc2c(c1)C(=O)N([C@H](C)CO)C[C@@H](C)[C@@H](CN(C)C(=O)Cc1cccnc1)O2 | -6[16.7 µM] | -10

Source: PubChem
